Screening data from PubChem BioAssay.
UUG fidelity – modulators of start codon recognition fidelity in yeast; S. cerevisiae UUG-firefly luciferase reporter, luminescence/redox ratio; activity score, % at 18.7 µM; hit rate 0.13% among 350,000; AID 602363;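 active = replicate mean at a twofold rise or more, about +100% in these data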;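 note: firefly luciferase made from a UUG start codon reports start codon fidelity; reporter light over untreated wells divided by growth signal over untreated wells; some hits fall short of that in this replicate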
HIV Env fusion – HIV envelope-mediated fusion inhibition | hit rate 1.1% among 360,000 | HeLa-JRFL Env/CEM21 cell fusion, luciferase | AID 651610 | inhibition, % at 12.3 µM;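 active = mean replicate inhibition score of at least 50 and every replicate individually at or above 50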;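 note: 0% = plate neutral controls and 100% = maraviroc near 300 nM; one replicate is shown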
* marks the source's active call; other numbers are inactive results; [ ] = another dose, or the depositor's remark. The list is partial. The share of hits here may be higher or lower than overall.

Order of values – UUG fidelity, HIV Env fusion
- C[C@@H]1CCCCO[C@H](CN(C)C(=O)CCCN(C)C)[C@H](C)CN([C@H](C)CO)C(=O)c2cc(NC(=O)CCC(F)(F)F)ccc2O1
    3.3, 6.0[16.7 µM]
- C[C@@H]1CN([C@@H](C)CO)C(=O)c2cc(NC(=O)NC3CCCCC3)ccc2O[C@@H]1CN(C)C(=O)Nc1ccc(C(F)(F)F)cc1
    -20.0, -5.7[16.7 µM]
- C[C@H](CO)N1C[C@H](C)[C@@H](CN(C)S(=O)(=O)c2ccc(F)cc2)Oc2ccc(NS(=O)(=O)c3cccs3)cc2CC1=O
    4.9, -5.7[16.7 µM]
- O=C(C[C@H]1C=C[C@H](NC(=O)C2CCC2)[C@H](CO)O1)Nc1nccs1
    -8.1, 6.9[16.7 µM]
- COc1ccc(C#Cc2ccc3c(c2)[C@]2(C(=O)N3)[C@H](C(N)=O)[C@H]3C(=O)O[C@H](c4ccccc4)[C@H](c4ccccc4)N3[C@@H]2c2ccc(O)cc2)cc1
    13.1, -12.1[16.7 µM]
- C[C@@H]1CN([C@H](C)CO)C(=O)c2cc(C#Cc3ccccn3)cnc2O[C@@H]1CN(C)C(=O)c1ccccn1
    14.5, -15.5[16.7 µM]
- C[C@H](CO)N1C[C@H](C)[C@H](CN(C)CC2CCOCC2)Oc2cc(C3=CCCC3)ccc2S1(=O)=O
    6.1, 5.4[16.7 µM]
- C[C@@H]1CN([C@@H](C)CO)C(=O)c2cc(C#CC(C)(C)O)cnc2O[C@H]1CN(C)C(=O)C1CCCCC1
    -1.2, 1.1[16.7 µM]
- CC(C)CC#Cc1cnc2c(c1)C(=O)N([C@@H](C)CO)C[C@H](C)[C@@H](CN(C)Cc1cccc(F)c1)O2
    24.7, -2.9[16.7 µM]
- CCCNC(=O)N(C)C[C@@H]1Oc2ncc(C#CCC3CCCC3)cc2C(=O)N([C@H](C)CO)C[C@H]1C
    -12.4, 2.9[16.7 µM]
- COc1ccc(S(=O)(=O)N(C)C[C@@H]2Oc3c(NS(=O)(=O)c4ccccc4)cccc3C(=O)N([C@H](C)CO)C[C@@H]2C)cc1
    7.7, -18.4[16.7 µM]
- CO[C@@H]1CN(C)C(=O)c2cc(NC(=O)NC(C)C)ccc2OC[C@H](C)N(C(=O)CN(C)C)C[C@@H]1C
    -9.7, -9.2[16.7 µM]
- COc1ccccc1NC(=O)N[C@H]1C=C[C@H](CC(=O)NCc2ccc(Cl)c(Cl)c2)O[C@@H]1CO
    -12.4, 7.0[16.7 µM]
- C[C@H]1CN([C@@H](C)CO)S(=O)(=O)c2ccc(C#CC(C)(C)O)cc2O[C@@H]1CN(C)Cc1ccccc1
    34.0, -18.4[16.7 µM]
- C[C@H](CO)N1C[C@H](C)[C@H](CN(C)C(=O)Nc2ccccc2)Oc2ccc(NS(=O)(=O)c3ccccc3)cc2CC1=O
    3.3, 10.6[16.7 µM]
- COc1ccc(CN(C)C[C@H]2OCCCC[C@H](C)Oc3ccc(N(C)C)cc3C(=O)N([C@H](C)CO)C[C@H]2C)cc1
    3.1, -15.7[16.7 µM]
- Cc1noc(C)c1NC(=O)Nc1ccc2c(c1)C(=O)N([C@H](C)CO)C[C@H](C)[C@H](CN(C)Cc1ccc(Cl)c(Cl)c1)OCCCC[C@H](C)O2
    13.6, 17.0[16.7 µM]
- COc1ccccc1-c1cn(CC[C@@H]2CC[C@@H](NC(=O)CCN3CCCCC3)[C@H](CO)O2)nn1
    -13.9, 12.7[16.7 µM]
- COc1ccc(S(=O)(=O)N(C)C[C@H]2OCCCC[C@@H](C)Oc3ccc(NC(=O)Nc4ccc(F)cc4)cc3C(=O)N([C@@H](C)CO)C[C@@H]2C)cc1
    -3.0, -9.1[16.7 µM]
- N#C[C@H]1[C@H](c2ccc(C3=CCCCC3)cc2)[C@H](CO)N1C(=O)CN1CCOCC1
    -1.4, -3.1[16.7 µM]
- C[C@@H]1CN([C@@H](C)CO)C(=O)c2cc(NC(=O)C3CCCCC3)ccc2O[C@@H](C)CCCCO[C@H]1CN(C)Cc1ccccc1
    20.9, -16.3[16.7 µM]
- C[C@@H]1CCCCO[C@@H](CN(C)CC2CCCCC2)[C@H](C)CN([C@@H](C)CO)C(=O)c2cc(NC(=O)Nc3ccc(F)cc3)ccc2O1
    89.2, 18.5[16.7 µM]
- O=C(C[C@@H]1CC[C@H](NS(=O)(=O)c2ccc(F)cc2)[C@@H](CO)O1)NCCN1CCCCC1
    2.5, -23.1[16.7 µM]
- COc1ccc(S(=O)(=O)Nc2ccc3c(c2)CC(=O)N([C@@H](C)CO)C[C@H](C)[C@@H](CN(C)C(=O)Nc2ccc(F)cc2)O3)cc1
    6.8, -25.9[16.7 µM]
- C/C=C/c1ccc2c(c1)O[C@H](CN(C)C(=O)c1ccc(F)cc1)[C@@H](C)CN([C@@H](C)CO)S2(=O)=O
    16.6, -33.8[16.7 µM]
- O=S(=O)(NCC[C@H]1CC[C@@H](NS(=O)(=O)c2cccc(Cl)c2)[C@H](CO)O1)c1cccc(F)c1
    9.3, -19.3[16.7 µM]
- CC(C)NC(=O)N1[C@H](C#N)[C@@H](c2ccc(C#CC3CC3)cc2)[C@@H]1CO
    0.2, -6.3[16.7 µM]
- CN(C)C(=O)C[C@@H]1C[C@H]2c3cc(NC(=O)C4CCC4)ccc3O[C@H]2[C@@H](CO)O1
    -11.9, 51.0[16.7 µM]
- C[C@H]1CCCCO[C@H](CN(C)Cc2ccc(Cl)c(Cl)c2)[C@@H](C)CN([C@@H](C)CO)C(=O)c2cc(NC(=O)Nc3ccc4c(c3)OCO4)ccc2O1
    -5.4, 45.4[16.7 µM]
- C[C@H]1CCCCO[C@H](CN(C)C(=O)CCCN(C)C)[C@@H](C)CN([C@@H](C)CO)C(=O)c2cc(NS(=O)(=O)c3ccc(Cl)cc3)ccc2O1
    18.9, -15.7[16.7 µM]

Continued, overlapping the part above by 2 compounds.
Order of values – UUG fidelity, HIV Env fusion
- C[C@H]1CCCCO[C@H](CN(C)Cc2ccc(Cl)c(Cl)c2)[C@@H](C)CN([C@@H](C)CO)C(=O)c2cc(NC(=O)Nc3ccc4c(c3)OCO4)ccc2O1
    -5.4, 45.4[16.7 µM]
- C[C@H]1CCCCO[C@H](CN(C)C(=O)CCCN(C)C)[C@@H](C)CN([C@@H](C)CO)C(=O)c2cc(NS(=O)(=O)c3ccc(Cl)cc3)ccc2O1
    18.9, -15.7[16.7 µM]
- COc1ccc(NC(=O)N(C)C[C@H]2Oc3ncc(C4=CCCC4)cc3C(=O)N([C@H](C)CO)C[C@H]2C)cc1
    0.9, 12.2[16.7 µM]
- C[C@@H]1CCCCO[C@@H](CN(C)S(=O)(=O)c2cccs2)[C@H](C)CN([C@@H](C)CO)C(=O)c2cc(NC(=O)Nc3ccc(F)cc3)ccc2O1
    1.0, -12.5[16.7 µM]
- CO[C@@H]1CN(C)C(=O)c2ccc(NC(C)=O)cc2OC[C@H](C)N(Cc2ccccn2)C[C@H]1C
    -31.6, 3.7[16.7 µM]
- C[C@@H]1CCCCO[C@H](CN(C)C(=O)Nc2cccc3ccccc23)[C@@H](C)CN([C@H](C)CO)C(=O)c2cc(NC(=O)C3CCCCC3)ccc2O1
    -3.2, -12.3[16.7 µM]
- Cc1noc(C)c1S(=O)(=O)Nc1cccc2c1O[C@H](CN(C)C(=O)NC(C)C)[C@H](C)CN([C@H](C)CO)C2=O
    11.8, -4.5[16.7 µM]
- CC(C)NC(=O)Nc1ccc2c(c1)C(=O)N([C@H](C)CO)C[C@H](C)[C@H](CN(C)C(=O)Nc1cccc3ccccc13)OCCCC[C@@H](C)O2
    4.3, 4.3[16.7 µM]
- COC(=O)[C@H]1COC(c2ccc(OCCCO)cc2)=N1
    9.5, 4.8[16.7 µM]
- COc1ccc(CNC(=O)C[C@@H]2CC[C@@H]3[C@@H](COc4ccc(NC(C)=O)cc4C(=O)N3C)O2)cc1
    -11.3, -14.6[16.7 µM]
- C[C@@H]1CN([C@@H](C)CO)C(=O)Cc2cc(NC(=O)CCCN(C)C)ccc2O[C@H]1CN(C)Cc1ccc(Oc2ccccc2)cc1
    -8.5, 10.7[16.7 µM]
- CC(C)CC#Cc1ccc2c(c1)O[C@H](CN(C)C(=O)C1CCOCC1)[C@@H](C)CN([C@@H](C)CO)S2(=O)=O
    38.0, -10.1[16.7 µM]
- COc1ccc(S(=O)(=O)Nc2ccc3c(c2)C(=O)N([C@@H](C)CO)C[C@@H](C)[C@@H](CN(C)C(=O)Cc2ccccc2)OCCCC[C@@H](C)O3)cc1
    5.9, 2.2[16.7 µM]
- C[C@@H]1CN([C@@H](C)CO)C(=O)c2cc(Br)cnc2O[C@@H]1CN(C)Cc1ccncc1
    -17.2, -54.8[16.7 µM]
- C[C@@H]1CN([C@H](C)CO)C(=O)Cc2cc(NS(=O)(=O)c3ccccc3)ccc2O[C@H]1CN(C)C(=O)Nc1cccc2ccccc12
    21.1, 15.6[16.7 µM]
- COc1ccccc1-c1cn(CC[C@@H]2CC[C@H](NC(=O)C3CC3)[C@H](CO)O2)nn1
    25.3, 0.2[16.7 µM]
- C[C@@H]1CN([C@H](C)CO)C(=O)c2cccc(NC(=O)c3cnccn3)c2O[C@H]1CN(C)Cc1ccc(Oc2ccccc2)cc1
    -7.4, 26.9[16.7 µM]
- COc1ccc(NC(=O)Nc2ccc3c(c2)C(=O)N([C@@H](C)CO)C[C@H](C)[C@H](CN(C)Cc2ccc(C(=O)O)cc2)O3)cc1
    -0.3, -3.8[16.7 µM]
- O=C(C[C@H]1CC[C@@H]2[C@H](COC[C@@H](O)CN2Cc2cc(F)ccc2F)O1)N1CCc2ccccc2C1
    0.7, -1.4[16.7 µM]
- CC(C)C#Cc1ccc2c(c1)O[C@H](CN(C)C(=O)c1cnccn1)[C@@H](C)CN([C@H](C)CO)S2(=O)=O
    -10.5, -1.1[16.7 µM]
- CCC(=O)N[C@H]1C=C[C@@H](CC(=O)NCCN2CCCCC2)O[C@H]1CO
    -17.3, -12.4[16.7 µM]
- C[C@@H]1CN([C@@H](C)CO)C(=O)Cc2cc(NC(=O)Nc3ccccc3)ccc2O[C@H]1CN(C)C(=O)Nc1ccccc1
    17.5, 3.2[16.7 µM]
- C[C@H](CO)N1C[C@H](C)[C@@H](CN(C)C(=O)Nc2ccc(C(F)(F)F)cc2)Oc2ccc(NC(=O)CCCCCC(=O)Nc3ccccc3N)cc2CC1=O
    -4.8, 4.1[16.7 µM]
- COCc1cn(CC[C@@H]2CC[C@@H](NC(=O)c3ccc(F)cc3)[C@@H](CO)O2)nn1
    -5.4, 21.8[16.7 µM]
- C[C@@H]1CN([C@@H](C)CO)C(=O)c2cc(NC(=O)Nc3ccc4c(c3)OCO4)ccc2O[C@@H]1CN(C)C(=O)Nc1ccc(F)cc1
    2.2, -7.4[16.7 µM]
- C[C@@H]1CN([C@H](C)CO)C(=O)c2cc(-c3ccc(F)cc3)cnc2O[C@@H]1CN(C)C(=O)NC1CCCC1
    4.1, -12.5[16.7 µM]
- Cc1ccc(-c2ccc3c(c2)O[C@H](CN(C)Cc2cccc(C(=O)O)c2)[C@@H](C)CN([C@H](C)CO)S3(=O)=O)cc1
    24.4, -0.6[16.7 µM]
- C/C=C/c1cnc2c(c1)C(=O)N([C@@H](C)CO)C[C@H](C)[C@H](CN(C)Cc1ccc3c(c1)OCO3)O2
    0.7, -6.3[16.7 µM]
- O=C(NCC[C@H]1CC[C@@H](NC(=O)c2ccccc2F)[C@@H](CO)O1)c1cnccn1
    -7.1, 0.5[16.7 µM]
- O=C(CN1CCOCC1)NCC[C@@H]1CC[C@@H](NS(=O)(=O)c2ccc(Cl)cc2)[C@@H](CO)O1
    -3.1, 9.1[16.7 µM]
- CC(C)NC(=O)N(C)C[C@@H]1Oc2cc(C3=CCCCC3)ccc2S(=O)(=O)N([C@@H](C)CO)C[C@H]1C
    10.0, 16.8[16.7 µM]
- O=C(O)C[C@H]1C[C@@H]2c3cc(NC(=O)c4ccc5c(c4)OCO5)ccc3O[C@@H]2[C@H](CO)O1
    -9.5, -0.3[16.7 µM]

A second format for 3 compounds above.
Molecule | UUG fidelity | HIV Env fusion
Cc1ccc(-c2ccc3c(c2)O[C@H](CN(C)Cc2cccc(C(=O)O)c2)[C@@H](C)CN([C@H](C)CO)S3(=O)=O)cc1 | 24.4 | -0.6[16.7 µM]
C/C=C/c1cnc2c(c1)C(=O)N([C@@H](C)CO)C[C@H](C)[C@H](CN(C)Cc1ccc3c(c1)OCO3)O2 | 0.7 | -6.3[16.7 µM]
O=C(NCC[C@H]1CC[C@@H](NC(=O)c2ccccc2F)[C@@H](CO)O1)c1cnccn1 | -7.1 | 0.5[16.7 µM]

New compounds follow:
Order of values – UUG fidelity, HIV Env fusion
- C[C@H](CO)N1C[C@H](C)[C@@H](CN(C)C)OCCCC[C@H](C)Oc2ccc(NS(=O)(=O)c3cccs3)cc2C1=O
    9.5, 7.4[16.7 µM]
- CCCNC(=O)N(C)C[C@H]1Oc2cc(C#CCN(C)C)ccc2S(=O)(=O)N([C@@H](C)CO)C[C@H]1C
    -1.6, 6.7[16.7 µM]
- C[C@H](CO)N1C[C@H](C)[C@@H](CN(C)Cc2ccccc2)Oc2ccc(NC(=O)Cc3cn(C)c4ccccc34)cc2CC1=O
    12.3, 1.0[16.7 µM]
- CC(C)NC(=O)N(C)C[C@H]1Oc2ccc(NC(=O)C3CC3)cc2C(=O)N([C@H](C)CO)C[C@H]1C
    0.1, -10.6[16.7 µM]
- C[C@@H]1CN([C@@H](C)CO)C(=O)Cc2cc(NC(=O)C3CC3)ccc2O[C@H]1CN(C)S(C)(=O)=O
    -2.4, -24.5[16.7 µM]
- C[C@H](CO)N1C[C@H](C)[C@H](CN(C)C(=O)CC2CC2)Oc2cc(C3=CCCCC3)ccc2S1(=O)=O
    6.0, -8.0[16.7 µM]
- CN1C(=O)c2cc(NC(=O)Cc3ccccc3)ccc2OC[C@@H]2O[C@@H](CC(=O)O)CC[C@H]21
    -5.7, -11.5[16.7 µM]
- C/C=C/c1ccc([C@H]2[C@@H](C#N)N(C(=O)NC3CCCCC3)[C@H]2CO)cc1
    24.0, 19.5[16.7 µM]
